# ugtP null kill: growth inhibition of ugtP-null S. aureus, primary screen, RN4220 ugtP deletion, OD600; 16 h; some inactives read as strong as hits; growth inhibition, % (no concentration beside the values); actives 0.54% (n = 330,000); AID 1259309, 2017;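 active = z-score under -3 and OD600 up to 0.15 on both plates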;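 note: plate controls were untreated wells for no effect and antibiotic for full effect; wells of about 80 µL received 100 nL stock; the first replicate is given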
# BJeLR viability: MLPCN primary cell-based screen for lethality selective to Ras in HRASV12 cells | BJeLR (HRASV12) viability, CellTiter-Glo ATP luminescence, 48 h; reference of the scale not given here | inhibition, % (concentration not given with the values) | actives 0.17% (n = 300,000) | AID 1554, 2009;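 active = replicate mean above 50%; inconclusive = above 50% but judged a plate artefact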;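 note: 50 nL library stock added to about 25 µL; numbers are from one replicate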
# Mtb hypoxia rep: PubChem AID 1159583; M. tuberculosis hypoxia-regulated fluorescent reporter, fluorescence; fluorescence inhibition, % (concentration not given with the values); actives 0.1% (n = 300,000);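 active = 35 to 45% if threefold the growth effect, above 45% if 1.5-fold the growth effect; inactive = the rest, general growth blockers included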;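 note: wells of about 50 µL received 100 nL stock; 0% = vehicle wells and 100% = reference inhibitor wells; whole bacteria with a GFP reporter of the hypoxia response; strong numbers were not always called active; many hits fall short of the cut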
# PrP UTR inh: inhibition of PrP 5' UTR reporter expression | cell-based PrP 5' UTR mRNA reporter, plate reader | inhibition, % (concentration not given with the values) | actives 0.35% (n = 340,000);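 active = every replicate at 50% or more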;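 note: 0 = median of the neutral control wells; tested in H4 reporter cells; numbers are from one replicate; inactives centre near -14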
# RN4220 kill: growth inhibition of S. aureus RN4220, primary screen, OD600 | actives 0.33% (n = 330,000) | inhibition, % (concentration not given with the values) | 16 h | AID 1259311, 2017;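 active = z-score of -3 or lower and OD600 up to 0.18 on both plates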;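 note: plate controls were untreated cells for no effect and reference antibiotic for full effect; stock transfer was 100 nL into about 80 µL; one replicate is shown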
# Bead autofluor: counter-screen for toxin protease inhibitors: compound fluorescence; AID 624483; compound autofluorescence counterscreen, microsphere flow cytometry; hits give high values; fluorescence intensity (concentration not given with the values); actives 3.1% (n = 360,000);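 active = at least 3 SD above the mean of all compounds, about 16000 in these data; inconclusive = too few beads counted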;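 note: 100 nL of 1 mM stock went into each well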
# Mtb hypoxia rep growth: second read-out of Mtb hypoxia rep, no call of its own (marks repeat the call); growth inhibition, %; measured here: M. tuberculosis growth (absorbance);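 0% = vehicle and 100% = reference antibiotic; read after six days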
# * = called active by the depositor; ? = inconclusive; · = no result given; & = joins results of further samples.
SMILES,ugtP null kill,BJeLR viability,Mtb hypoxia rep,Mtb hypoxia rep growth,PrP UTR inh,RN4220 kill,Bead autofluor
CC1(c2ccc(OC(F)F)cc2)NC(=O)N(CC(=O)NC2CCCC2)C1=O (centres undefined),-0.3,·,-7.4,0.7,-14.4,1.8,2906
COc1ccc(S(=O)(=O)N(C)C)cc1NC(=O)CCCSc1ccccc1,2.6,0.7,-4.2,6.1,-6.0,-6.8,3769
O=C(c1ccc2c3n(nc2c1)-c1ccc(Cl)cc1CO3)N1CCOCC1,-7.4,10.6,-1.2,10.7,-39.6,5.5,4020
O=C(NC(=S)Nc1ccccc1)c1csnn1,4.2,-6.0,-1.6,-3.0,-20.6,1.6,5905
OC1COCOC1C(O)C1OCOCC1O (centres undefined),5.6,·,6.0,8.9,-20.9,3.6,3526
COc1cccc(/C=N/NC(=O)c2ccccc2NC(=O)c2ccco2)c1OC,·,-3.2,·,·,-13.0,·,5604
CCCCN(C(=O)c1ccc(-n2nc(C)cc2C)cc1)c1c(N)n(CCC)c(=O)[nH]c1=O,0.4,·,1.8,-2.0,-17.1,2.0,6105
CC1(C)CC(=O)C(C=NCCN2CCN(C3CC(=O)N(c4ccc(Br)cc4)C3=O)CC2)=C(O)C1 (centres undefined),2.1,2.7,9.4,-0.3,-21.0,4.9,4773
N=C1/C(=C\c2ccc(OC(=O)c3ccc(F)cc3)cc2)C(=O)N=C2SC(N3CCOCC3)=NN12,-2.7,5.0,-1.2,6.2,-23.1,2.7,5257
O=C(Nc1ccccc1)/C(=C\c1ccccc1)NC(=O)c1ccco1,4.8,-3.6,3.0,-8.9,·,6.6,4507
CCN(CC)CCNC(=O)C1c2cc(OC)c(OC)cc2C(=O)N(C)C1c1cccs1 (centres undefined),8.2,-6.6,0.8,5.0,-6.1,0.6,4417
CC1=CCn2c(=O)c3ccccc3c(=O)n2C1,4.0,-2.9,11.8,0.0,-21.2,1.9,2526
O=C(O)CC1(CC(=O)Nc2ccc3ccccc3c2)CCCCC1,-3.5,-11.1,·,·,-30.4,2.2,2736
CS(=O)(=O)N(Cc1ccc(F)cc1)Cc1nc2ccccc2c(=O)[nH]1,6.1,10.8,16.2,5.5,-4.8,2.3,4954
Cc1noc(C(=O)Nc2ccc(C#N)cc2)c1Cl,11.5,-2.5,1.4,2.3,-30.0,2.0,3350
NS(=O)(=O)c1ccc(CCNc2ccnc3cc(Cl)ccc23)cc1,2.6,7.3,12.7,6.2,-6.1,1.8,3471
Cc1cccnc1NC(=S)Nc1ccc(Cl)c(Cl)c1,-17.6,6.1,12.0,9.0,-56.0,3.2,4467
COCCn1c(SC2CCCCC2=O)nnc1-c1ccncc1 (centres undefined),1.8,-1.4,4.3,9.0,-25.3,3.9,3956
O=C(O)C1=CC(c2ccc(Br)cc2)CC(OCc2ccc(CO)cc2)O1 (centres undefined),4.4&8.3,·,3.1&4.4,2.2&-0.2,·,4.6&12.4,·
O=C(CNC(=O)c1ccccc1F)OCn1nnc2ccccc2c1=O,3.5,·,-4.1,-8.7,-8.9,4.1,2965
O=C(NNC(=O)c1ccc(Br)o1)c1ccc(NC(=O)c2ccccc2)cc1,-16.1,0.3,-6.0,7.7,-7.4,-4.6,4278
Cc1cc(NC(=O)CSc2nnc(CNC(=O)c3ccccc3)o2)no1,2.0,-7.1,-5.0,-2.4,-12.4,-3.0,?
CC(C)(C)NCC(O)COc1ccccc1C(=O)CCc1ccccc1 (centres undefined),12.8,7.2,7.5,1.0,0.6,3.4,5592
Cc1ccc(/C=C(\C#N)c2nc3ccccc3[nH]2)s1,-17.0,22.4,15.8,6.5,-113.8,2.1,8985
Cc1cc(OCC(=O)NCC(c2cccs2)N2CCOCC2)ccc1C(C)C (centres undefined),10.5,3.2,8.1,4.9,-4.3,4.8,?
O=C(COC(=O)c1ccc(Br)o1)Nc1cccc(S(=O)(=O)N2CCOCC2)c1,4.3,·,3.5,3.8,-21.4,7.3,3468
CC1(C)Cc2ccccc2C(Nn2cnnc2)=N1,0.5,-8.3,14.4,3.3,-8.9,3.0,11310
CC(=O)c1sc(NC(=O)c2ccc(C(C)(C)C)cc2)nc1C,3.8,9.2,-1.7,6.8,-110.6,4.0,4877
Cc1cc(C(=O)N2CCC(Cc3ccccc3)CC2)no1,14.1,-9.9,11.2,10.3,-13.3,1.5,6375
COc1ccc(NC(=O)Cc2c(F)cccc2Cl)cc1,10.6,3.6,15.8,10.7,-25.0,-0.4,4363
N#C/C(C(N)=O)=C1/CCc2ccccc2N1,2.0,11.0,9.4,11.2,-21.2,3.2,5712
Cc1ccc(-c2oc3ccccc3c(=O)c2OCC(=O)O)cc1,1.1,-4.2,6.9,2.6,-10.2,7.1,5031
CCN(CC)C(=O)/C(NC(=O)c1ccccc1)=C(/Sc1ncccn1)c1ccccc1,2.4,4.4,-5.8,-0.4,-8.7,5.3,2560
CCCCN(C(=O)c1cc(=O)[nH]c2ccccc12)c1c(N)n(CCC)c(=O)[nH]c1=O,6.6,8.7,5.6,8.3,·,2.5,·
CCCCCNC(=O)C(C)Sc1ccc(Cl)cc1 (centres undefined),8.7,-5.4,18.1,19.9,-21.0,5.5,?
Cc1ccc(-c2cccc(NC(=O)C3C(C(=O)O)[C@@H]4C=C[C@H]3C4)c2)o1 (some centres undefined),·,7.4,·,·,-6.4,·,4358
COc1cc(C(=S)N2CCOCC2)ccc1OC(=O)Cc1ccc(F)cc1,2.9,-0.4,-2.9,10.6,-14.8,4.2,2310
CC1CCN(CC(=O)c2cccc(C(F)(F)F)c2)CC1,15.2,-0.5,4.4,8.0,-21.3,-0.2,4014
Cc1ccc(CC(=O)NCC(O)c2ccccc2)cc1 (centres undefined),-9.7,-3.3,-1.6,-3.3,-32.1,-6.4,3735
CCN(C(=S)Nc1cc(S(=O)(=O)N2CCOCC2)ccc1Cl)c1cccc2ccccc12,-3.0,2.1,-6.0,10.9,-25.3,0.1,2102
O=[N+]([O-])c1cccc(Cn2cnc3c(=S)nc[nH]c32)c1,-0.1,·,7.0,8.0,-24.4,-0.7,3734
N#C/C(=C/c1ccc(N2CCCCCC2)o1)c1ccc(Cl)cc1,-8.4,-4.9,16.1,15.6,-66.6,1.2,22830*
Cc1cccc(NC(=O)C2C(c3ccccc3)C2(Cl)Cl)c1 (centres undefined),8.9,0.5,5.5,10.7,-42.9,-6.8,3614
CC(C)C(c1nnnn1Cc1ccc2c(c1)OCO2)N1CCN(c2ccccc2)CC1 (centres undefined),0.1,-12.0,·,·,-26.9,1.0,4829
Cc1nnc(-c2cccc(C(F)(F)F)c2)nc1N1CCOCC1,-4.4,1.5,3.4,-2.0,-3.6,12.8,4623

# Compounds above that have a tert-butyl group, in the order listed:
SMILES,ugtP null kill,BJeLR viability,Mtb hypoxia rep,Mtb hypoxia rep growth,PrP UTR inh,RN4220 kill,Bead autofluor
CC(C)(C)NCC(O)COc1ccccc1C(=O)CCc1ccccc1 (centres undefined),12.8,7.2,7.5,1.0,0.6,3.4,5592
CC(=O)c1sc(NC(=O)c2ccc(C(C)(C)C)cc2)nc1C,3.8,9.2,-1.7,6.8,-110.6,4.0,4877

# Compounds from the list above with bromine (4):
SMILES,ugtP null kill,BJeLR viability,Mtb hypoxia rep,Mtb hypoxia rep growth,PrP UTR inh,RN4220 kill,Bead autofluor
CC1(C)CC(=O)C(C=NCCN2CCN(C3CC(=O)N(c4ccc(Br)cc4)C3=O)CC2)=C(O)C1 (centres undefined),2.1,2.7,9.4,-0.3,-21.0,4.9,4773
O=C(O)C1=CC(c2ccc(Br)cc2)CC(OCc2ccc(CO)cc2)O1 (centres undefined),4.4&8.3,·,3.1&4.4,2.2&-0.2,·,4.6&12.4,·
O=C(NNC(=O)c1ccc(Br)o1)c1ccc(NC(=O)c2ccccc2)cc1,-16.1,0.3,-6.0,7.7,-7.4,-4.6,4278
O=C(COC(=O)c1ccc(Br)o1)Nc1cccc(S(=O)(=O)N2CCOCC2)c1,4.3,·,3.5,3.8,-21.4,7.3,3468

# The results go on:
SMILES,ugtP null kill,BJeLR viability,Mtb hypoxia rep,Mtb hypoxia rep growth,PrP UTR inh,RN4220 kill,Bead autofluor
CNC(=O)C1CC(=O)N(Cc2ccc(OC)c(OC)c2)C(=Nc2ccc(OC)cc2)S1 (centres undefined),3.2,-1.9,-5.7,1.4,-22.1,1.4,2904
CC(NC(N)=O)C12CC3CC(CC(C3)C1)C2 (centres undefined),-0.2,-7.4,-5.2,2.0,2.1,1.2,6092
Cc1cc(NC(=O)CCC(=O)N(c2ccc(C)c(F)c2)C(C(=O)NC2CCCC2)c2ccco2)no1 (centres undefined),11.8,-8.4,-4.4,-9.3,-3.1,2.2,3191
COc1ccc(C(=O)Nc2nnc(SCC(=O)NCc3ccco3)s2)c(OC)c1,-11.4,5.4,3.3,2.9,-4.4,4.3,4814
Cc1cc(C)n(C(=O)c2ccc(Cl)c(F)c2F)n1,12.6,-1.1,-5.9,-9.9,-20.2,1.8,5891
CCCCCCNC(=O)CCCCCNS(=O)(=O)c1ccc(OC)cc1,10.6,-8.9,12.4,15.6,-22.5,-0.5,2564
Cn1cnnc1SCC(=O)Nc1ccc(N2CCCCC2)cc1,1.2,·,0.6,-4.6,-24.2,0.1,3844
CC(=O)c1c(C)[nH]c(C(=O)Nc2ccc3c(c2)OCCO3)c1C,-2.0,-0.1,·,·,-59.5,2.1,4364
CCSc1nnc(NC(=O)c2csc3c2CCCC3)s1,-11.7,-2.2,3.7,11.0,-11.9,3.5,22354*
Cc1ccc(CNC(=O)CCCCCNC(=O)N2CCn3c2nc2ccccc23)cc1,5.3,-0.1,-0.8,3.8,-3.7,2.5,4774
Nc1nc2ccccc2n1CCOc1ccccc1Cl,-7.8,9.4,19.3,8.5,-24.4,-15.1,2953
O=C(CCN1C(=O)C2CCCCC2C1=O)Nc1nc(-c2ccc(F)c(F)c2)cs1 (centres undefined),·,-3.2,·,·,-21.3,·,3573
COc1ccc(OC)c(NC(=O)c2nnn(Cc3ccccc3C)c2N)c1,2.1,-8.7,1.2,-1.3,-31.6,-0.7,6287
CCN1CCN(S(=O)(=O)c2ccc(Cl)nc2)CC1,0.9,2.2,9.9,1.1,-4.5,10.3,3518
CC(=O)N(C)c1ccc(OCC(O)Cn2c3ccc(Cl)cc3c3cc(Cl)ccc32)cc1 (centres undefined),15.3,11.3,-3.5,15.2,-34.6,27.7,2392
NC(=O)NC(Cc1ccccc1)c1ccccc1 (centres undefined),3.5,-13.0,1.4,0.0,·,0.9,11705
COc1ccc(OC)c(NC(=O)N2CCc3ccccc3C2)c1,0.2,5.4,2.4,-11.5,-27.8,-0.8,5658
CCCCN(C(=O)c1cc2ccccc2o1)c1c(N)n(CCCC)c(=O)[nH]c1=O,1.3,·,-10.3,-4.1,-28.4,3.5,3655
CSc1nnc(-c2cccc(NC(=S)NN)c2)o1,-12.6,-0.4,-7.2,-10.2,-14.6,2.2,2026
CN1CC(c2ccccc2)C(c2ccc(Cl)cc2)=N1 (centres undefined),6.8,1.8,3.5,-4.4,-27.2,-5.3,2178
CCOC(=O)NCc1ccc(CNC(=O)OCC)cc1,6.6,0.8,8.9,0.7,-1.1,6.2,3170
CCN1C(=O)N(C(C)=O)C2C1N(C(C)=O)C(=O)N2C(C)=O (centres undefined),4.5,4.1,-2.2,0.6,-14.0,3.9,3905
CC(C)COC(=O)N1CC(O)CC1C(=O)Nc1ccc2c(c1)OCO2 (centres undefined),0.6,·,4.0,-1.3,-6.9,1.6,4315
COc1cccc(/C=N/n2c(C)nc3ccccc32)c1OC,·,0.0,·,·,-23.6,·,5286
COc1ccccc1C(=O)Nc1onc(C)c1C#N,0.4,-1.8,3.0,0.2,-34.8,3.8,4612
Cc1nc(NC(=O)c2cc3ccccc3o2)ccc1Br,10.6,-2.1,2.9,-3.0,-65.0,3.5,?
Cc1ccccc1NS(=O)(=O)c1ccc(NS(=O)(=O)c2cccs2)cc1,1.2,-5.3,-15.0,-20.3,-6.5,9.2,4060
COC(=O)CCc1cccc(CCC(=O)OC)c1,-4.7,-8.7,12.2,8.5,-16.2,5.5,4442
CCCCN(C(=O)CSCC(=O)Nc1ccc(OC)cc1)c1c(N)n(Cc2ccccc2)c(=O)[nH]c1=O,7.4,-9.4,-4.0,-6.9,-7.7,2.7,5762

# Screening results deposited in PubChem BioAssay by several laboratories.

# Hits appear at their usual frequency; any-hit rate near 4%.
